Fluorescein fluor = qHTS Assay for Spectroscopic Profiling in Fluorescein Spectral Region. AID 593, 2007. 0.91% of 59,000 active. max fluorescein-equivalent concentration, M. Compound autofluorescence, 480/540 nm, fluorescein-equivalent; hits give high values; in the data active = max fluorescein-equivalent concentration above about 10 nM; inconclusive = between about 1.1 nM and that limit
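Spectral profiling of library compounds in the fluorescein window (480 nm excitation, 540 nm emission) after 15 min at room temperature in pH 8.0 Tris (100 mM). Values are dye-equivalent concentrations.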
TexasRed autofl = qHTS Assay for Spectroscopic Profiling in Texas Red Spectral Region; Compound fluorescence, Texas Red channel, 547/618 nm; hits give high values; max dye-equivalent concentration, M; 0.06% of 59,000 active; AID 587, 2007; in the data active = max dye-equivalent concentration above about 10 nM; inconclusive = between about 1.1 nM and that limit
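Texas Red-region profiling: compounds in 100 mM Tris pH 8.0 were read at 547/618 nm after 15 min at room temperature. Intensities were normalized against a six-point Texas Red standard series to give dye-equivalent concentration.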
Rhodamine autofl = qHTS Assay for Spectroscopic Profiling in Rhodamine Spectral Region | max dye-equivalent concentration, M | Rhodamine-region fluorescence, 547/598 nm, Tris buffer; hits give high values | AID 594, 2007 | 0.05% of 59,000 active; in the data active = max dye-equivalent concentration above about 11 nM; inconclusive = between about 1.1 nM and that limit
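Compounds in 100 mM Tris buffer, pH 8.0, were incubated 15 min at room temperature, then read at 547 nm excitation and 598 nm emission. Fluorescence was normalized against a per-plate six-point rhodamine standard curve as dye-equivalent concentration.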
HEK293 cAMP ctrl = qHTS Assay for Agonists of the Thyroid Stimulating Hormone Receptor: Activators of Intracellular cAMP Concentrations in Parental HEK 293; parental HEK293 CNG cAMP sensor, membrane potential fluorescence; Potency, µM (top dose mostly 57.1 µM), for inactives: top-dose activation, most hits filed as activators; 2.5% of 73,000 active; AID 938, 2007; also: potency is read from the fitted curve at half-maximal effect; % of control where 0% means no effect; nearly all actives have a fitted effect of over 55% in size
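Counterscreen for endogenous-receptor signalling: CNG-channel HEK 293 cells report cAMP rise by membrane depolarization. After 60 min dye equilibration with 100 uM RO 20-1724, compounds incubated 30 min before bottom-read fluorescence at 590 nm.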
Luciferase inh = qHTS Assay for Inhibitors of Firefly Luciferase; Luciferin 4-monooxygenase (Photinus pyralis), P08659; purified firefly luciferase, luminescence, 8 min; Potency, µM (doses to about 57.1 µM), for inactives: top-dose activity change, negative = inhibition, most hits filed as inhibitors; 2.2% of 72,000 active; AID 411, 2009; also: potency is read from the fitted curve at half-maximal effect; % is scaled to controls: 0 for no effect and ±100 for the full control effect; nearly all actives have a fitted effect of over 40% in size
Target sequence (P08659 whole entry, looked up): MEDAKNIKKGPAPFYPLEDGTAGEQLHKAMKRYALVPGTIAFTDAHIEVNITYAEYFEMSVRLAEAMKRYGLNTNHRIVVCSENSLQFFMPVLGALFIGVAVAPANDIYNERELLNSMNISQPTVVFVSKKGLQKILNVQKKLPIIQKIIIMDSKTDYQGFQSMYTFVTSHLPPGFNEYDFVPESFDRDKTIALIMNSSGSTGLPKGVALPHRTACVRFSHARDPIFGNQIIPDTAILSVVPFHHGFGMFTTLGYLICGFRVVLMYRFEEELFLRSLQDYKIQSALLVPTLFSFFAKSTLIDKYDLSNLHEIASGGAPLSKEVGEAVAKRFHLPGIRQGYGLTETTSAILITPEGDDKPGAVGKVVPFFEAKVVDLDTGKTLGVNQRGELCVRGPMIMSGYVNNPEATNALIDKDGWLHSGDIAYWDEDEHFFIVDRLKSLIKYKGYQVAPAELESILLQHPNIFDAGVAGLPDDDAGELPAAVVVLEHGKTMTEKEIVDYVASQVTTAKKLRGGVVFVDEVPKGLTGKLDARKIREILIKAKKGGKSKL
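Inhibition of light generation by firefly luciferase from ATP and luciferin was profiled with concentration-response curves per sample, ATP held at 10 uM within the enzyme's linear range. Plates were read by luminescence after an 8-minute ambient incubation.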
Tau fil binding = qHTS Assay for Tau Filament Binding; Microtubule-associated protein tau (Homo sapiens), P10636; recombinant tau filaments, thioflavin S fluorescence, 15 h; filaments grown with octadecylsulfate alongside compound; Potency, µM (titrated, usually from 57.1 µM), for the others: at the top dose activity change, negative = inhibition; 2% of 71,000 active;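 also: potency is read from the fitted curve at half-maximal effect; % is scaled to controls: 0 for no effect and ±100 for the full control effect; actives lower thioflavin S fluorescence by blocking filaments or displacing dye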
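Recombinant tau protein (human, 1 uM final) plus 30 uM ODS in HEPES pH 7.4 with NaCl, DTT and thioflavine S. Compound present from the start; fluorescence at 510 nm after 15 h, 37 C.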
ERK AVP inh = qHTS Assay for Inhibitors of the ERK Signaling Pathway using a Homogeneous Screening Assay. 0.99% of 72,000 active. AID 995, 2007. Potency, µM (doses to about 57.5 µM), for the others: at the highest dose activity, negative = inhibition, usual class: inhibitors. HEK293-V1b, vasopressin-stimulated pERK AlphaScreen; also: potency is read from the fitted curve at half-maximal effect; % is scaled to controls: 0 for no effect and ±100 for the full control effect; nearly all actives have a fitted effect of over 55% in size
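qHTS, compounds titrated on V1b-expressing HEK293 cells. Preincubation 30 min at 37C, vasopressin 25 nM for 5 min, lysis 10 min, bead incubation 5 hr at room temperature.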
* = called active by the depositor; i = inactive; ? = inconclusive; . = not tested or not shown; [ ] = dose if it differs, or a comment. Unless noted, calls follow the shape of the dose curve; as a rule, active = well fitted curve in the direction sought with a large enough effect; inconclusive = small, poorly fitted or top-dose-only effect, or another doubt; inactive = no such curve, though single readings can be large; an effect the other way counts as inactive or inconclusive.

no.	Molecule	Fluorescein fluor	TexasRed autofl	Rhodamine autofl	HEK293 cAMP ctrl	Luciferase inh	Tau fil binding	ERK AVP inh
1	O=C1CCNc2cc3ccccc3cc21	i	i	i	-9%	-11%	20µM*	-7%
2	N#Cc1cc2cc3c(cc2nc1N1CCCCC1)OCCO3	i	i	i	?	13µM*	46%	20%
3	CCc1ccc2[nH]c(=O)c(CN(Cc3nnnn3C3CCCC3)C3CCCCC3)cc2c1	i	i	i	29%	-3%	10%	34%[activator]
4	CCC(Oc1ccc2c(c1)C(=O)CC(C)(C)O2)C(=O)NCCN1CCCCCC1 (stereo not given)	i	i	i	7%	1%	-5%	-18%
5	COCCn1c(=O)c(-c2ccccc2)nc2cnc(Nc3cccc(OC)c3)nc21	i	i	i	-2%	-1%[11.4 µM]	30%	10%
6	Cn1c(=O)c2[nH]c(CNCc3ccccc3Cl)nc2n(C)c1=O	i	i	i	20%	0%	88%	-21%
7	Cc1nc2cnc(N3CCNCC3)nc2n(CCC#N)c1=O	i	i	i	-3%	1%[11.4 µM]	3%	-30%
8	O=c1c(-c2ccccc2)nc2cnc(N3CCNCC3)nc2n1C1CC1	i	i	i	-3%	0%[11.4 µM]	3%	-11%
9	COCCn1c(=O)cnc2cnc(N3CCNCC3)nc21	i	i	i	23%[0.457 µM]	1%[11.4 µM]	9%	-18%
10	COc1ccc(S(=O)(=O)C(C#N)c2nc3ccccc3nc2N2CCCCC2)cc1 (stereo not given)	?	i	i	1%	-3%	-24%	-14%
11	CC(C)OC(=O)CCCN1C(=O)c2ccc(N)cc2C1=O	?	i	i	16%	0%	272%	6%
12	O=c1c(-c2cccs2)nc2cnc(Oc3ccccc3)nc2n1-c1ccccc1	i	?	i	10%	-6%[11.4 µM]	48%	-14%
13	c1csc(-c2cnc3ccccc3n2)c1	i	i	i	7%	-21%	-9%	-1%
14	COc1ccc(-c2nc3cnc(N4CCN(C)CC4)nc3n(Cc3cccc(OC)c3)c2=O)cc1	i	i	i	7%	1%[11.4 µM]	70%	?
15	N=c1c(S(=O)(=O)c2ccccc2)cc2c(=O)n3ccccc3nc2n1CC1CCCO1 (stereo not given)	?	i	i	5%	2%	18%	22%

Compound profiles, from the list above. Values in the order: Fluorescein fluor | TexasRed autofl | Rhodamine autofl | HEK293 cAMP ctrl | Luciferase inh | Tau fil binding | ERK AVP inh
O=C1CCNc2cc3ccccc3cc21 reads i | i | i | -9% | -11% | 20µM* | -7%
Cn1c(=O)c2[nH]c(CNCc3ccccc3Cl)nc2n(C)c1=O reads i | i | i | 20% | 0% | 88% | -21%

(cont.)
no.	Molecule	Fluorescein fluor	TexasRed autofl	Rhodamine autofl	HEK293 cAMP ctrl	Luciferase inh	Tau fil binding	ERK AVP inh
16	O=c1c2c3nc4ccccc4nc3n(Cc3ccccc3)c2ncn1Cc1ccco1	?	i	i	24%	-17%	10µM*	-19%
17	CN(C)c1ncc2nc(-c3ccc(F)cc3)c(=O)n(CCc3ccccc3)c2n1	i	i	i	?	1%[11.4 µM]	10%	5%
18	O=c1[nH]c2cc3c(cc2cc1C(c1nnnn1C1CCCCC1)N1CCSCC1)OCCO3 (stereo not given)	?	i	i	16%	0%	-2%	?
19	O=C(Nc1ccc2c(c1)OCO2)c1noc2c1CCCCC2	i	i	i	?	7.9µM*	13%	9%
20	N#CCCn1c(=O)c(-c2cc(F)cc(F)c2)nc2cnc(Oc3cccc(Cl)c3)nc21	i	i	i	-9%	1%[11.4 µM]	6%	?
21	COCCn1c(=O)c(-c2ccccc2)nc2cnc(N(C)C)nc21	?	i	i	?	-1%[11.4 µM]	368%	15%
22	Cc1cc(C(F)(F)F)c2c(N)c(C(=O)Nc3cc(C)on3)sc2n1	1.2e-08M*	i	i	5%	-1%	30%	-2%
23	CCCCc1cc(=O)oc2c(CN(C)C)c(O)ccc12	?	i	i	9%	1%	7%	-17%
24	COc1ccc2c3c([nH]c2c1)[C@@H]1C[C@@H]2[C@@H](C[C@H](O)[C@H](OC)[C@H]2C(=O)O)CN1CC3	?	i	i	?	-2%[25.5 µM]	-2%[25.6 µM]	-3%[25.7 µM]
25	CCNc1ncc2nc(-c3ccc(Cl)cc3)c(=O)n(Cc3cccc(OC)c3)c2n1	?	i	i	17%	-2%[11.4 µM]	0%	15%
26	Cn1c(=O)c(-c2cccs2)nc2cnc(N3CCOCC3)nc21	?	i	i	4%	-2%[11.4 µM]	i	9%
27	CCOC(=O)c1sc2nc(-c3ccco3)c3c(c2c1N)CC(C)(C)OC3	i	i	i	2%	-18%	13µM*	10%
28	Cc1cccc(NC(=O)c2sc3nc(-c4ccccc4)cn3c2C)n1	?	i	i	25µM*	-6%	93%	-2%
29	Cc1cccn2c(=O)c3cc(C#N)c(=O)n(Cc4cccnc4)c3nc12	?	i	i	-1%	3%	62%	-18%
30	O=c1oc2c(CN3CCOCC3)c(O)ccc2c2c1CCCC2	i	i	i	5%	2%	10%	-8%
31	COc1ccc2[nH]c(=O)c(CN(Cc3nnnn3Cc3ccc(F)cc3)CC3CCCO3)cc2c1 (stereo not given)	?	i	i	19%	0%	64%	-12%
32	COc1ccc(NC(=O)c2ccco2)cc1NC(=O)c1cc2ccccc2o1	i	i	i	?	0%	121%	-23%
33	O=c1c2cc(N3CCOCC3)ccc2[nH]c(=S)n1CCCN1CCCC1	i	i	i	-1%	2%	12%	-13%
34	CCc1c(C)c2cc(Cl)c(O)c(CN(CC)CC)c2oc1=O	i	i	i	9%	1%	8%	-18%
35	COc1ccc(OC)c(NC=C2C(=O)OC3(CCCCC3)OC2=O)c1	?	i	i	11%	0%	?	27%
36	CCC(O)c1cc2c(cc1NC(=O)c1cccs1)OCCO2 (stereo not given)	?	?	i	6%	3%	16%	-25%
37	COC(=O)CC(=O)CSc1nc2c(cc1C#N)CCC2	i	i	i	0%	-21%	5%	-9%
38	Cc1ccc2nc3c(cc(C#N)c(=N)n3CC3CCCO3)c(=O)n2c1 (stereo not given)	?	i	i	-4%	0%	128%	-28%
39	O=C(NC1CCCCC1)c1cnn2c(C(F)(F)F)cc(-c3ccco3)nc12	?	i	i	30%	-1%	10µM*	-3%
40	CCCCC(CC)Cn1c(N)c(C#N)c2nc3ccccc3nc21 (stereo not given)	?	i	i	-4%	2%	63%	?
41	CCCOc1ccccc1C1C(C(=O)OC)=CN(C(C)C)C=C1C(=O)OC	i	i	i	11%	3%	49%	95%[activator]
42	COCCn1c(=O)c(-c2ccccc2)nc2cnc(N3CCOCC3)nc21	i	i	i	8%	1%[11.4 µM]	146%	6%
43	CCC(=O)Nc1c(C#N)c2nc3ccccc3nc2n1-c1ccccc1C	?	i	i	5%	0%	i	2%
44	COCCn1c(=O)c(-c2cccs2)nc2cnc(N(C)C)nc21	?	i	i	1%	0%[11.4 µM]	i	21%
45	CCNc1ncc2nc(CCc3ccccc3)c(=O)n(Cc3cccc(OC)c3)c2n1	i	i	i	21%	0%[11.4 µM]	1%	10%
46	CN(C)c1ncc2nc(CCc3ccccc3)c(=O)n(-c3ccccc3)c2n1	i	i	i	?	0%[11.4 µM]	298%	73%[activator]
47	COc1cccc(Nc2ncc3nc(-c4cc(F)cc(F)c4)c(=O)n(C[C@H]4CCCO4)c3n2)c1	i	i	i	15%	0%[11.4 µM]	24%	-28%
48	CCOC(=O)CNc1c(-c2ccc(Cl)cc2)nc2cnccn12	?	i	i	11%	-4%	74%	18%
49	COc1ccc(-c2nc3cnc(N4CCN(C)CC4)nc3n(C3CC3)c2=O)cc1	i	i	i	?	0%[11.4 µM]	1%	5%
50	COc1ccc(-n2c(=O)c(-c3cccs3)nc3cnc(OC)nc32)cc1	i	i	i	1%	2%[11.4 µM]	62%	-24%
51	N=c1oc2c3c4c(cc2cc1C(=O)Nc1ccccc1)CCCN4CCC3	4.7e-07M*	?	?	-21%	-10%	i	9%
52	N#CC1=C(N)SC(N)=C(C#N)C1c1ccoc1	1.8e-08M*	i	i	8%	-4%	i	-19%
53	CCNc1ncc2nc(C)c(=O)n(C)c2n1	i	i	i	14%	0%[11.4 µM]	50%	?
54	COc1ccc(-n2c(=O)c(-c3cc(F)cc(F)c3)nc3cnc(N4CCNCC4)nc32)cc1	?	i	i	11%[0.457 µM]	-1%[11.4 µM]	3.2µM*	9%
55	COc1ccc(-c2nc3cnc(N(C)C)nc3n(C3CC3)c2=O)cc1	i	i	i	10%	-13%[11.4 µM]	201%	38%[activator]
56	N#Cc1cc2c(=O)n3ccccc3nc2n(CCCn2ccnc2)c1=N	?	i	i	-12%	3%	33%	2%
57	O=C(O)CCc1ccc(-c2cccs2)n1CC1CCCO1 (stereo not given)	i	i	i	18%	6%	-10%	-25%
58	Cn1cc(-c2nc3cnc(Oc4ccccc4)nc3n(C)c2=O)c2ccccc21	?	i	i	11%	0%[11.4 µM]	28%	28%
59	Cn1c(C(C#N)/C(=N\S(=O)(=O)c2cccs2)c2ccccc2)nc2ccccc21 (stereo not given)	i	i	i	0%	4%	14%	15%
60	N#Cc1c(NC(=O)c2ccc(Br)o2)n(-c2ccccc2)c2nc3ccccc3nc12	?	i	i	-10%	-1%	-9%	-17%
61	CCOC(=O)C1C(=O)C(C(=O)OCC)C(c2cccnc2)NC1c1cccnc1 (stereo not given)	i	i	i	7%	0%	4%	9%
62	COc1cccc(Nc2ncc3nc(-c4ccccc4)c(=O)n(Cc4cccs4)c3n2)c1	?	i	i	25%	2%[11.4 µM]	.	10%
63	CCOC(=O)CNc1c(-c2ccc(F)cc2)nc2cnccn12	?	i	i	13%	-1%	78%	-20%
64	CCOc1ccc(C2C=C(c3ccccc3)Nc3nnnn32)cc1 (stereo not given)	i	i	i	?	-10%	298%	16%
65	CCCOc1ccc(N)cc1N	1.9e-08M*	i	i	-2%	-6%	i	1%
66	CCOc1cc(-c2cc(-c3ccc(N)cc3)nc(N)c2C#N)ccc1O	i	i	i	-4%	-6%	32µM*	?
67	COc1ccc(-c2nc3cnc(OC)nc3n(Cc3cccs3)c2=O)cc1	?	i	i	3%	1%[11.4 µM]	13%	-7%
68	COc1cc(NC(=O)c2cccs2)c(OC)cc1NC(=O)c1ccco1	i	i	i	0%	0%	53%	4%

Luciferase inh: what is marked active above
| no. | Compound | Fluorescein fluor | Luciferase inh | Tau fil binding | ERK AVP inh |
| --- | --- | --- | --- | --- | --- |
| 2 | N#Cc1cc2cc3c(cc2nc1N1CCCCC1)OCCO3 | i | 13µM* | 46% | 20% |
| 19 | O=C(Nc1ccc2c(c1)OCO2)c1noc2c1CCCCC2 | i | 7.9µM* | 13% | 9% |

Assay outcomes deposited in PubChem by National Center for Advancing Translational Sciences (NCATS).

The list is partial, so the mix of outcomes need not match the whole.
